# miR-21 FLuc – raises the signal of a miR-21 reporter. 340,000 tested, under 10 active. Potency, µM (doses to about 38.3 µM), inactives show at the highest dose reporter change, positive = more light. AID 2288. HeLa miR-21 FLuc reporter, luciferase, 48 h; active = well fitted rising curve with a large enough effect; inconclusive = small, poorly fitted or top-dose-only effect; inactive = no such curve, though single readings can be large or run the other way;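 further: % of control where 0% means no effect; miR-21 action dims this reporter so a rising signal means less miR-21 action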
#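 HeLa cells endogenously expressing miR-21, stably carrying CMV-driven firefly luciferase with a downstream miR-21 binding site, 2000 cells/well. Titrations up to approximately 40 uM, 48 hours; luciferase luminescence read.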
# Numbers without * were called inactive; ? = inconclusive; [ ] = another dose, or the depositor's remark. The list is partial; rates above refer to the full screens.
miR-21 FLuc | Molecule
-6% | Cc1cc(C)cc(NC(=O)c2cn3c4c(ccc(Cl)c4c2=O)OC(C)C3)c1 (stereo not given)
-8% | O=C(CCn1ccc2cc(S(=O)(=O)N3CCCC3)ccc21)NCc1cccc(Br)c1
-1% | O=C(C1CCN(S(=O)(=O)c2ccc(Br)s2)CC1)N1CCN(c2cccc(C(F)(F)F)c2)CC1
-6% | O=C(Cn1nnc(-c2cccc(C(F)(F)F)c2)n1)NCc1ccc(F)cc1
8% | O=c1c(S(=O)(=O)c2ccc(Cl)cc2)cn(Cc2ccc(F)cc2)c2ccc(F)cc12
22% | Cc1cccc(NC(=O)c2sc3nc4c(cc3c2N)CN(C(C)C)CC4)c1
-3% | Cc1cc(S(=O)(=O)Nc2cccc(C(=O)O)c2)c(C)c(S(=O)(=O)c2ccccc2)c1
-12% | O=C(Nc1ccc(C(=O)OCc2cc(=O)n3c4c(sc3n2)CCCC4)cc1)c1ccccc1
-1% | CC(=O)c1cccc(NC(=O)Cn2nc(C(F)(F)F)c3c2CCC3)c1
-5% | O=C(NCC(c1ccc2c(c1)OCO2)N1CCN(c2ccccc2)CC1)C(=O)Nc1cccc(F)c1 (stereo not given)
? | CCCCN(CCCC)C1=C(C(=O)c2ccccc2)N(CC)S(=O)(=O)c2ccccc21
5% | CCN(Cc1ccccc1)C(=O)C(CC(C)C)NS(=O)(=O)c1ccc2c(c1)CCN2C(C)=O (stereo not given)
-4% | CCOc1ccc(-c2cc(OC(=O)c3ccc(OC)cc3)c3c(C)oc(C)c3c(=O)c2)cc1
1% | O=C(Cn1c(=O)nc(-c2ccccc2F)c2cc(Cl)ccc21)N1CCN(c2ccccc2F)CC1
-32% | Cc1ccc(C)c(NC(=O)c2ccc3c(c2)CCCN3S(C)(=O)=O)c1
8% | CCS(=O)(=O)N1CCc2cc(C(=O)Nc3ccc(OC)cc3OC)ccc21
22% | CCN(CC)CCNC(=O)c1ccc2c(=O)n3nc(Nc4ccccc4)sc3nc2c1
12% | O=C(COc1ccc(Cl)cc1)NCC(c1ccco1)S(=O)(=O)c1ccc(Cl)cc1 (stereo not given)
7% | Cc1c(Cl)cccc1NC(=O)c1cc2nc(-c3ccc4c(c3)OCO4)cc(C(F)(F)F)n2n1
0% | COc1cc(C(=O)N(CCCN(C)C)c2nc3c(OC)cccc3s2)cc(OC)c1OC
5% | Cc1ccc(CNC(=O)CN2CCCN(Cc3ccc(F)cc3)S2(=O)=O)cc1
-2% | CC(C)(C)C1CCc2c(sc(NC(=O)c3ccc(Cl)cc3)c2C(=O)NCc2ccco2)C1 (stereo not given)
-4% | Cc1cc(C)c2c(CC(=O)Nc3nnc(C(C)C)s3)coc2c1
-3% | CCOc1ccccc1NC(=O)C(C)n1nnc2sc3c(c2c1=O)CCCC3 (stereo not given)
-1% | COc1ccc(-n2cc(C(=O)N(C)c3cc(C)ccc3OC)c3ccccc3c2=O)cc1
-3% | CCn1ccc2cc(S(=O)(=O)N3CCCN(C(=O)NCCOC)CC3)ccc21
-10% | CCS(=O)(=O)c1nc(S(=O)(=O)c2ccc(C)cc2)c(NCC(C)C)s1
-2% | O=C(NCc1ccc(F)cc1Cl)c1cc(=O)[nH]c2ccc(S(=O)(=O)N3CCCCC3)cc12
-5% | Cc1cc(-c2ccc(C)c(S(=O)(=O)Nc3cccc(C)n3)c2)on1
9% | CC1Cc2cc(S(=O)(=O)NCc3ccc(F)cc3)ccc2N1C(=O)C1CCC1 (stereo not given)
0% | O=C(NCc1ccc(F)cc1)c1ccc2c(Cl)c3c(nc2c1)CCCC3
0% | Cc1ccc(-n2nnnc2CNC(=O)c2ccccc2C)cc1C
-5% | COc1ccc(-c2cc(C(=O)Nc3cccc(C(C)=O)c3)no2)cc1OC
0% | Cc1ccccc1-n1nc(CO)c(C(=O)NCc2cccnc2)n1
-10% | C=Cc1ccc(CSc2nc(-c3ccccc3Cl)nc3c2Cc2c(CO)cnc(C)c2O3)cc1
22% | Cc1cccc(NS(=O)(=O)c2ccc3c(c2)CCN3C(=O)C2CCC2)c1
-3% | Fc1ccc(Nc2ncnc3onc(-c4ccc(Cl)cc4)c23)cc1Cl
19% | CC(=O)Nc1cccc(-c2nnc(SCC(=O)c3cc([N+](=O)[O-])ccc3Br)o2)c1
12% | CCOc1ccc(NC(=O)CN2CCN(Cc3ccccc3)S2(=O)=O)cc1
-2% | CCc1ccc(NC(=O)C2CCC(CNS(=O)(=O)c3cccs3)CC2)cc1 (stereo not given)

# Given as comma-separated lines: part of the list above
molecule,miR-21 FLuc
CCn1ccc2cc(S(=O)(=O)N3CCCN(C(=O)NCCOC)CC3)ccc21,-3%
CCS(=O)(=O)c1nc(S(=O)(=O)c2ccc(C)cc2)c(NCC(C)C)s1,-10%
O=C(NCc1ccc(F)cc1Cl)c1cc(=O)[nH]c2ccc(S(=O)(=O)N3CCCCC3)cc12,-2%
Cc1cc(-c2ccc(C)c(S(=O)(=O)Nc3cccc(C)n3)c2)on1,-5%
CC1Cc2cc(S(=O)(=O)NCc3ccc(F)cc3)ccc2N1C(=O)C1CCC1 (stereo not given),9%
O=C(NCc1ccc(F)cc1)c1ccc2c(Cl)c3c(nc2c1)CCCC3,0%
Cc1ccc(-n2nnnc2CNC(=O)c2ccccc2C)cc1C,0%
COc1ccc(-c2cc(C(=O)Nc3cccc(C(C)=O)c3)no2)cc1OC,-5%
Cc1ccccc1-n1nc(CO)c(C(=O)NCc2cccnc2)n1,0%
C=Cc1ccc(CSc2nc(-c3ccccc3Cl)nc3c2Cc2c(CO)cnc(C)c2O3)cc1,-10%
Cc1cccc(NS(=O)(=O)c2ccc3c(c2)CCN3C(=O)C2CCC2)c1,22%
Fc1ccc(Nc2ncnc3onc(-c4ccc(Cl)cc4)c23)cc1Cl,-3%
CC(=O)Nc1cccc(-c2nnc(SCC(=O)c3cc([N+](=O)[O-])ccc3Br)o2)c1,19%
CCOc1ccc(NC(=O)CN2CCN(Cc3ccccc3)S2(=O)=O)cc1,12%
CCc1ccc(NC(=O)C2CCC(CNS(=O)(=O)c3cccs3)CC2)cc1 (stereo not given),-2%

# Next entries
miR-21 FLuc | Molecule
-1% | Cc1ccc(-c2ccc(=O)n(CC(=O)Nc3cccc(C#N)c3)n2)cc1
6% | COc1ccc(CNC(=O)CCC2N=C3c4ccccc4N=C(SCc4cccc(F)c4)N3C2=O)cc1 (stereo not given)
-4% | Cc1cc(SCC(=O)Nc2ccc(C(F)(F)F)cc2)nc(=O)[nH]1
6% | COc1ccc(-c2cc3nc(C)c(CCC(=O)Nc4cccc(C(F)(F)F)c4)c(C)n3n2)c(OC)c1
-2% | CCc1ccc2occ(CC(=O)Nc3ccc(OC)c(Cl)c3)c2c1
-19% | CC(C)Oc1ccc(-c2nc3c(C#N)c[nH]n3c2NC2CCCCC2)cc1
1% | Cn1ccc2cc(S(=O)(=O)N3CCCN(C(=O)Nc4ccccc4Br)CC3)ccc21
-1% | COc1ccc2oc(=O)c(-c3nnc(-c4ccc(C)cc4)o3)cc2c1
3% | Cc1ccc(N2CC(c3nnc(Cc4ccc(F)cc4)o3)CC2=O)cc1 (stereo not given)
-27% | CCOc1ccc(S(=O)(=O)Nc2cccc(-c3ccc(N4CCC(C)CC4)nn3)c2)cc1
-8% | CCc1ccc(NC(=O)C2CCN(c3nn4cc(-c5ccc(OC)cc5)nc4s3)CC2)cc1
2% | O=C(CN1CCCN(Cc2ccc(Cl)cc2)S1(=O)=O)Nc1ccccc1F
14% | Cc1ccc(CCNC(=O)Cn2nc(C)c3c(C)n(-c4ccc(C)cc4)nc3c2=O)cc1
? | COc1ccc(CC(=O)NCc2ccc3c(c2)CCN3C(=O)c2cccc(C)c2)cc1
-5% | CCC(=O)N1CCc2cc(S(=O)(=O)NC(Cc3ccccc3)C(=O)NCc3ccc(F)cc3)ccc21 (stereo not given)
-1% | COc1ccc(Br)cc1CNC(=O)C1CCN(c2nnc(-n3cccc3CNc3ccc(C)cc3)s2)CC1
0% | CCn1c(=O)cc(OCC(=O)Nc2ccccc2Cl)c2ccccc21
4% | COC(=O)c1sccc1S(=O)(=O)N(CC(=O)NCc1ccc(C)cc1)c1ccccc1
-1% | COc1ccc(-c2c3c(=O)n(C)c(=O)n(C)c3c3c(-c4ccc(C)cc4)nc4ccccc4n23)cc1
-2% | Cc1cccc(C)c1NC(=O)CSc1nccn1C
0% | Cc1cc(=O)n(CC(=O)NCc2ccc(OC(C)C)cc2)c2c1c(C)nn2-c1cccc(F)c1
7% | Cc1cc(C)c(/C=C/c2onc(C)c2S(=O)(=O)N2CCC(C(=O)N3CCN(c4ccccc4)CC3)CC2)c(C)c1
1% | Cc1c(NC(=O)Cc2ccc(Cl)cc2)cccc1-c1nc2cccnc2s1
-17% | CCC(=O)N1CCc2cc(CNS(=O)(=O)c3ccc(Br)s3)ccc21
1% | COc1ccc(-c2cnc(C)o2)cc1S(=O)(=O)Nc1ccc(NC(C)=O)cc1
-11% | Cc1ccc2cccc(NC(=O)C(C)Oc3ccc(Cl)cc3Cl)c2n1 (stereo not given)
? | CSc1ncc(Cl)c(C(=O)Nc2ccc(S(=O)(=O)N3CCC(C)CC3)cc2)n1
-1% | CCOc1ccc(NC(=O)CCS(=O)(=O)c2ccc3c(c2)n(C)c(=O)c(=O)n3C)cc1
0% | O=C(Cc1cccc([N+](=O)[O-])c1)NCc1nc2cccnc2n1Cc1ccc(F)cc1
-14% | CC(=O)NCCNc1nc2c(-c3cccc(C)c3)nnn2c2ccc(Cl)cc12
-10% | Cc1ccccc1CNC(=O)C(=O)NCC(c1ccc2c(c1)OCO2)N1CCOCC1 (stereo not given)
1% | CCc1ccc(NC(=O)C(=O)NCCc2sc(-c3ccc(OC)c(OC)c3)nc2C)cc1
-21% | Cn1cc(S(=O)(=O)c2ccccc2)c(=O)c2cc(F)c(N3CCCCC3)cc21
-2% | COc1cccc(NC(=O)CSc2nnc3[nH]c(=O)cc(-c4ccccc4)n23)c1
-3% | CCOc1ccc(NC(=O)c2cnc(N3CCCC3)nc2C)cc1
-2%[7.66 µM] | N#Cc1ccc2c(c1)C[C@]1(CCCCN3C(=O)c4ccccc4C3=O)Oc3c(c(=O)oc4ccc(F)cc34)C2O1
0% | COc1ccc(-c2cc(C(=O)Nc3ccc(C#N)cc3)no2)cc1
? | COc1cc(C2c3c(-c4ccc(C)cc4)n[nH]c3C(=O)N2c2ccc(F)cc2)ccc1O (stereo not given)
-7% | CCOC(=O)c1c(C)oc2nc(C)nc(NCc3ccc(OC)cc3OC)c12
5% | CCc1nnc(NC(=O)CSc2nccn2-c2ccc(OC)cc2)s1
-4% | CSc1ccc(CCNC(=O)CN2C(=O)c3cccnc3Oc3ccc(Cl)cc32)cc1
8% | COC(=O)c1cc(NC(=O)CN(c2ccccc2)S(=O)(=O)N(C)C)ccc1Cl
1% | Cc1ccccc1NC(=O)Cn1c(=O)n(CCc2ccccc2)c(=O)c2sc3ccccc3c21
-1% | CC(=O)Nc1ccc(-c2nnc(SCC(=O)c3ccc([N+](=O)[O-])cc3)o2)cc1
-5% | CCOc1ccc(Nc2ncnc3c2nc2n3CCCCC2)cc1
1% | O=C(Nc1cccc(F)c1)[C@H](CSCc1ccccc1)N1Cc2ccccc2C1=O
-1% | CC(C)CCNC(=O)c1cc(-c2cccnc2)nc2ccc(S(=O)(=O)N3CCC(C)CC3)cc12
6% | COc1cccc(CNC(=O)Cn2c(=O)nc(-c3ccccc3F)c3cc(Cl)ccc32)c1
26% | COc1cccc(NC(CNS(=O)(=O)c2ccc(C)cc2)c2ccccc2)c1 (stereo not given)
-3% | COc1ccc(-c2c(C)nn3c(N4CCN(c5ccccc5F)CC4)cc(C)nc23)cc1OC
-7% | Cc1nn(CCCC(=O)Nc2ccccc2C(F)(F)F)c(=O)c2nn(-c3ccccc3)c(C)c12
-6% | O=C(Nc1ccc(OC(F)(F)F)cc1)NC1COc2ccccc2C1 (stereo not given)
24% | Cc1coc2c(C)c3oc(=O)c(CCC(=O)N4CCCCC4)c(C)c3cc12
-41% | Cc1ccn2c(Nc3ccc4c(c3)OCCO4)c(-c3ccc(C)o3)nc2c1
-2% | Cc1ccc(-c2nc3ccccc3[nH]2)cc1NC(=O)COc1ccc(Cl)cc1Cl
-22% | Clc1cccc(N2CCN(c3nc4ccccc4n4nnnc34)CC2)c1

# Following part:
miR-21 FLuc | Molecule
0% | O=S(=O)(Nc1cccc(-c2ccc(N3CCCCC3)nn2)c1)c1cccc(F)c1
-11% | O=C(CCCCCn1c(=O)c2sccc2n(CC(=O)Nc2cc(C(F)(F)F)ccc2Cl)c1=O)NCc1ccccc1Cl
9% | CC(C)Oc1ccc(CNC(=O)c2ccc3nc(C(C)C)oc3c2)cc1
7% | Cc1ccc(Cl)cc1NC(=O)CSc1nc2ccccc2nc1Cc1ccccc1
8% | Cc1cccc2c1-c1sc(C(=O)NCCc3ccc(Cl)cc3)cc1CO2
-1% | COC(=O)c1ccc(OCC2c3cc(OC)c(OC)cc3CCN2C(=O)Cc2ccccc2)cc1 (stereo not given)
-29% | Cc1ccccc1-c1nc2cc(NC(=O)COc3ccc(F)cc3)ccc2o1
-17% | Cc1nc2nc(C)c(CCC(=O)NCCc3ccccc3)c(C)n2n1
-38% | Cc1cc(NC(=O)Nc2nnc(N3CCCCC3)s2)ccc1Br
-12% | Cc1ccc2nc(-c3ccc(Cl)cc3)cc(C(=O)OCC(=O)c3ccccc3)c2c1
-3% | CN1CC(=O)N(CC(=O)Nc2ccc(OC(F)(F)F)cc2)c2ccccc2C1=O
19% | CC(NC(=O)Cn1ccc2cc(S(=O)(=O)N3CCCCCC3)ccc21)c1ccccc1 (stereo not given)
-12% | COc1ccc(NC(=O)Nc2nnc(N3CCCCCC3)s2)cc1
-6% | CC1CCN(C(=O)c2cc3c(=O)n(C)c4cc(Cl)ccc4c3s2)CC1
